# UCH37 inh: inhibitors of human deubiquitinating enzyme UCH37; actives 0.33% (n = 330,000); inhibition, % (no concentration beside the values); purified proteasome/UCH37, Ub-AMC cleavage fluorescence; AID 588478; Q9Y5K5;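 active = mean of two replicates above 20%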;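 also: 0% = compound-free wells with enzyme and 100% = wells lacking proteasome; stock transfer was 100 nL into about 20 µL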
# Target sequence (Q9Y5K5 whole entry, looked up): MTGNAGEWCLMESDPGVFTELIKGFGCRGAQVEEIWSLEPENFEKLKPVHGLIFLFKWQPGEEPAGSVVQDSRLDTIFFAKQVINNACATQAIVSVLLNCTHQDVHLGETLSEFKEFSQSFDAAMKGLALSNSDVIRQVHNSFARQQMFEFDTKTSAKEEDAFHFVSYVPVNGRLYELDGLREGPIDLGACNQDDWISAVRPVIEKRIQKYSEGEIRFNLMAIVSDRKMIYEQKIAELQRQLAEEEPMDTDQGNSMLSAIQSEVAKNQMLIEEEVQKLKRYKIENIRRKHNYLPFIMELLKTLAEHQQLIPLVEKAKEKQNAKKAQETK
#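 Schedule: 30 min plus 25 min, room temperature / Material: human UCH37 within purified proteasomes / Technique: AMC fluorescence intensity at 355/460 nm / Buffer or medium: pH 7.4 Tris-HCl (50 mM) with ovalbumin, ATP-MgCl2, DTT / Controls: wells without proteasome as full block, compound-free enzyme plus substrate as uninhibited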
# FGF22 binding: binders of recombinant human FGF22 by thermal shift; Q9HCT0; SYPRO orange fluorescence; percent of sucrose octasulfate shift, DMSO zero; calls only at 9.99 µM; actives 1.5% (n = 340,000);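 active = melting point raised past a set limit in the mean and every replicate; inconclusive = no clear call; three in four hits are not shown here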
# ALR H2O2 inh: blocks human ALR sulfhydryl oxidase activity; actives 3.8% (n = 290,000); AID 485317; P55789; inhibition, % (concentration not given with the values); purified ALR, DTT oxidation, H2O2 HRP-luminol luminescence;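 active = mean and each replicate at 75% or more; inconclusive = only one of the two met; inactive = neither met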;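 also: stock transfer was 7.5 nL into about 7.5 µL; 0% = neutral wells and 100% = wells with inactivated enzyme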
# Target sequence (P55789 whole entry, looked up): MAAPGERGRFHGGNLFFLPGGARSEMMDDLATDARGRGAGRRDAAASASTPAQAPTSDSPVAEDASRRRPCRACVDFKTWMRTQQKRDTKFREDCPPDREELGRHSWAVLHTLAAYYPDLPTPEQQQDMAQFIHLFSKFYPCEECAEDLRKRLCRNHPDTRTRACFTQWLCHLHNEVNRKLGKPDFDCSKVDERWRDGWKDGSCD
# LANA-H2B inh: blocks KSHV LANA binding to histone H2A/H2B | Q9QR71 | cell-free LANA-H2A/H2B peptide, fluorescence polarization | inhibition, % (no concentration beside the values) | actives 0.6% (n = 320,000); in the data active = inhibition mostly above about 10%, no sharp cut-off; inactive = mostly below about 6.7%;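 also: stock transfer was 7.5 nL into about 10 µL; 0% = median of vehicle wells and 100% = median of positive control wells; one replicate is shown; the record names a cut of 25% in any replicate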
# Beta2AR agonist: human beta-2 adrenergic receptor agonism by FAP; Am2.2-beta2AR cells, FAP receptor internalization, flow cytometry; reference of the scale not given here; AID 504454; P07550; response, % (test concentration not listed); actives 0.43% (n = 340,000);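 active = response above a set limit, near 3 SD of response in nonfluorescent compounds, cut at about 42% in these data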;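 also: stock transfer was 100 nL into about 11 µL; a reference agonist was the positive control; negative values mostly stem from fluorescent compounds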
# HNF4A DNA FP: change in binding of human HNF4 alpha to DNA; HNF4a-FITC DNA binding, fluorescence polarization, 1 h; actives 0.3% (n = 360,000); activity change, % at 10 µM; AID 1224865; in the data active = activity change above about 30%, passing the limit was not always enough;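 also: controls were the assay level and a saturating level of protein; the project sought stronger binding though the title names inhibitors; some compounds called inactive have numbers as strong as hits; positive values seem to mean higher polarization but the record does not say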
# Target sequence (P41235 whole entry, looked up): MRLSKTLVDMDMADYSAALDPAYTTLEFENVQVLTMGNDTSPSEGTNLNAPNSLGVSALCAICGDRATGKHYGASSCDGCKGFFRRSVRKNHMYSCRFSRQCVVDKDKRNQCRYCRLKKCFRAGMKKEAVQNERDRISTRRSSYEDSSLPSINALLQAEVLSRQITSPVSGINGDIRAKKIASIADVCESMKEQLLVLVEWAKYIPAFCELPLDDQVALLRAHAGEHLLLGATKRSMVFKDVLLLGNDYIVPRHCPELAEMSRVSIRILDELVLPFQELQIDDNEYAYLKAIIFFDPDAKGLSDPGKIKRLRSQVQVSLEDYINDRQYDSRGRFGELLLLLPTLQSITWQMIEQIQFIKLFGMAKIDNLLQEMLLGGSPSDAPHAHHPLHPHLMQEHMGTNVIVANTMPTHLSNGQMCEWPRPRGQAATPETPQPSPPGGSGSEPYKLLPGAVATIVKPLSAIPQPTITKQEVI
# E coli growth: E. coli growth inhibition; Escherichia coli growth, OD600, 23 h; stronger effect = lower value; OD600 absorbance (concentration not given with the values); actives 0.21% (n = 330,000); AID 1053175;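 active = OD600 absorbance below the run mean of sample wells minus 3.6 SD, in any replicate, cut at about 0.56 in these data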;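 also: stock transfer was 300 nL into about 60 µL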
# The depositor's hits bear a star; i = inactive; ? = inconclusive; / = no result given.
SMILES,UCH37 inh,FGF22 binding,ALR H2O2 inh,LANA-H2B inh,Beta2AR agonist,HNF4A DNA FP,E coli growth
COc1ccc(S(=O)(=O)Nc2cccc(C)n2)c2ccccc12,4.1,/,/,2.7,5,0.8,0.79
CC(OC(=O)CC1Sc2ccccc2NC1=O)C(=O)NC1CCCC1 (centres undefined),2.9,i,-2,3.9,-5,1.7,0.67
CC(=O)c1cccc(NS(=O)(=O)c2cc(OCC(N)=O)c(C)cc2Cl)c1,3.2,/,-4,1.4,-7,1.0,0.75
CCc1cccc(NC(=O)CSCc2nc3sc(C)c(C)c3c(=O)[nH]2)c1,-1.9,i,0,-0.8,12,13,0.7
CCOC(=O)c1c(C)[nH]c(C)c1S(=O)(=O)Nc1ccc(CN2CCCCC2)cc1,6.4,i,-12,0.1,2,8.6,0.68
O=c1[nH]cnc2c1sc(=S)n2-c1ccccc1,7.2,/,-4,3.6,0,6.6,0.67
Cc1ccc2[nH]c(=O)c(C3C(C#N)=C(N)Oc4c3ccc3cccnc43)cc2c1 (centres undefined),0.4,/,-5,-4.5,-5,4.0,0.64
Cc1ccc(CN2CCN(C3CCCC3)C(CCO)C2)s1 (centres undefined),2.6,i,-1,2.1,-1,1.2,0.71
COCCOC(=O)C1=C(C)NC(=O)NC1c1cc2c(cc1Br)OCO2 (centres undefined),3.7,i,14,0.4,-2,3.9,0.64
COC(=O)c1c(-c2ccccc2)csc1NC1=NS(=O)(=O)c2ccccc21,-151,/,-16,-6.2,0,-1.6,0.72
CCOC(=O)C1CCN(C(=S)Nc2cc(OC)c(OC)cc2C(=O)OC)CC1,5.5,i,/,/,15,-1.2,0.72
O=C1NC(Cc2ccccc2)C(=O)Nc2ccc(Br)cc21 (centres undefined),1.8,i,-7,1.0,-3,1.7,0.69
Nc1nc(=S)c2[nH]c(=S)[nH]c2[nH]1,9.9,i,/,/,-1,-0.8,0.67
Cc1cccn2c(=O)c3cc(C(=O)NC4CCCCC4C)n(C)c3nc12 (centres undefined),-259,i,-2,3.3,2,-2.9,0.67
O=C(Nc1cccc(C(F)(F)F)c1)C(SCCO)c1ccccc1 (centres undefined),2.7,/,-2,1.9,6,4.3,0.66
CN(CC(=O)NCc1ccco1)C(=O)C1CC(=O)N(c2ccc3c(c2)OCCO3)C1 (centres undefined),0.5,i,-2,-2.5,-3,2.3,0.66
CCCn1cnc2c(SCCc3ccccc3)nc(N)nc21,-1.2,i,/,/,-7,-3.5,0.68
COc1cccc(-c2nnn(CC(=O)Nc3ccc(C)cc3C)n2)c1OC,3.7,/,-1,-1.9,-1,1.1,0.72
O=C(Nc1nccs1)C(Br)C(Br)c1ccccc1 (centres undefined),0.3,i,3,1.7,-9,-1.2,0.65
COC(=O)CCC(=O)OC1(C)C(=O)C2=CN(c3ccccc3)C(c3ccc(OC)cc3)=CC2=C(Br)C1=O (centres undefined),1.6,i,-37,-5.5,-4,7.4,0.68
COc1ccc(Nc2nc(C(=O)N(CCO)Cc3ccccc3)cs2)cc1,1.5,i,/,6.3,15,0.6,0.72
CN(C)C(CNC(=O)CCc1c[nH]c2ccccc12)c1ccccc1 (centres undefined),1.0,i,37,-0.3,-5,0.3,0.6
CCCn1c(N)[n+](CC(=O)c2ccco2)c2ccccc21,1.1,/,5,1.6,-8,-2.7,0.7
CCN(CC)S(=O)(=O)c1cccc(C(=O)N[C@H](C(=O)O)C(C)C)c1,5.3,/,-6,-2.9,-2,-3.0,0.7
COc1ccc(CN2CCOCCOCCN(Cc3ccc(OC)cc3)CCOCCOCC2)cc1,4.8,i,-3,-1.4,4,1.1,0.69
# Following part.
SMILES,UCH37 inh,FGF22 binding,ALR H2O2 inh,LANA-H2B inh,Beta2AR agonist,HNF4A DNA FP,E coli growth
CCC(Sc1nnnn1-c1ccccc1)C(=O)NC(C)c1ccccc1 (centres undefined),3.7,i,-5,-1.7,-5,-1.4,0.74
COc1cccc(NC(=O)CN(C)C(=O)c2c(C)noc2C)c1,3.9,i,2,1.9,4,-0.4,0.67
[O-][n+]1ccc(C2CC2)cc1,5.9,/,-12,-2.1,-3,-6.6,0.7
C#CCNC(=O)C1=C[C@H](c2ccccc2)C[C@H](OCCCCO)O1,-2.5,i,-35,2.2,-1,3.4,/
CC(C)Cc1nnc(NC(=O)c2ccc3c(=O)n4c(nc3c2)CCC4)s1,2.1,i,7,1.0,-2,-3.0,0.67
CC(C)=CCC/C(C)=C/CNC(=O)C[C@H]1C[C@H](C(=O)N2CCOCC2)[C@@]2(C)c3[nH]c4cc(-c5ccco5)ccc4c3CCN2C1=O,-25,/,/,/,2,5.4,0.71
COc1ccc(/C=C2\CCCC3C2=NN(C(=O)c2ccco2)C3c2ccc(OC)c(OC)c2)cc1OC (centres undefined),-177,/,-5,3.0,-5,-1.0,0.8
O=C(CCN1CCCCCC1)Nc1ccc2c(c1)OCCO2,0.7,i,45,-3.7,-1,-1.3,0.63
CCN=c1sc(C(=O)OC)cc(=O)n1CC,1.1,/,-18,-1.2,7,-3.1,0.66
COc1ccccc1N(CN1C(=O)c2ccccc2C1=O)C(=O)c1cccc(C)c1,3.6,i,-3,0.5,-19,0.4,0.69
CCC1CCCCN1C(=O)COC(=O)c1cc2ccccc2cc1O (centres undefined),-7.3,/,-8,-2.6,-3,-4.3,0.74
O=C(O)c1cccc(N2C(=O)C3C4C=CC(C4=C(c4ccccc4)c4ccccc4)C3C2=O)c1 (centres undefined),5.8,/,36,0.4,-2,-2.9,0.64
CCN1CCCC1CNC(=O)Cn1cc2c(n1)CCC(C)C2 (centres undefined),1.9,i,-19,-0.4,6,2.3,0.71
C/C(=N\Nc1ccc(C(=O)O)cc1)c1ccc(Br)cc1,/,i,98*,-2.6,6,-12,/
COc1ccc(-n2nc(C(=O)NCC(=O)NC(C)C)c3ccccc3c2=O)cc1,3.8,i,-8,7.0,-7,2.2,0.66
CCOC(=O)c1c(C)[nH]c(C(=O)OCc2ccccc2)c1C,2.9,i,-3,-7.5,1,-1.4,0.73
COc1ccc(-n2nc(C(=O)NCC(=O)O)c3ccccc3c2=O)cc1,1.8,i,-4,2.9,1,2.0,0.67
Cc1cnc(C(=O)OCC(=O)NCc2cccc(Cl)c2)cn1,3.4,i,3,-1.7,1,4.5,0.68
Cc1[nH]nc(SCC(=O)NCC(C)C)c1[N+](=O)[O-],2.9,i,1,2.7,1,-5.7,0.68
COc1ccc(-c2nc(N)nc(C)c2-c2ccc(Cl)cc2)c(O)c1,4.0,i,-8,5.9,1,-1.8,0.66
O=C(Nc1ccc2c(c1)OCCO2)NC12CC3CC(CC(C3)C1)C2,-1.5,/,-15,-2.2,2,3.6,0.7
O=C(Oc1ccc(-c2nnco2)cc1)N1CCCCC1,2.4,/,1,3.6,-8,0.7,0.7
O=C(NCc1ccccc1)C(=O)NCC1OCCN1S(=O)(=O)c1ccc(Br)cc1 (centres undefined),5.4,i,-3,0.7,1,-0.4,0.68
CCOc1cc(CN2CCCC(CNC(=O)c3ccc(F)cc3)C2)ccc1OC (centres undefined),-0.6,i,-3,3.1,-5,0.8,0.69
CC(N=C(NS(=O)(=O)c1ccc(Cl)cc1)c1ccccc1)C(=O)O (centres undefined),-1.4,/,-41,1.6,6,-2.5,0.69
# New compounds follow:
SMILES,UCH37 inh,FGF22 binding,ALR H2O2 inh,LANA-H2B inh,Beta2AR agonist,HNF4A DNA FP,E coli growth
Cc1ccc(S(=O)(=O)NC(=O)N(C)C2CCCCC2)cc1,-0.8,i,-3,1.9,1,0.4,0.67
CCN1CCN(C(c2cc(OC)ccc2OC)c2nnnn2Cc2ccccc2)CC1 (centres undefined),-2.0,/,0,1.6,-1,0.7,0.78
CC1CC(=O)N(CC(=O)Nc2ccc3c(c2)OCO3)c2ccccc2S1 (centres undefined),-0.4,/,-15,3.9,-3,0.6,0.65
COc1ccc(C(=O)N(CCc2ccccc2)Cc2ccccc2)cc1S(=O)(=O)N1CCOCC1,4.2,i,-2,1.6,10,3.5,0.69
COc1cc(/C=N/NC(=O)c2cc(C)n(-c3ccc(F)cc3)c2C)cc(OC)c1O,/,i,64,-0.9,4,-0.8,/
CC(O)Cn1c(N2CCCC2)nc2c1c(=O)n(C)c(=O)n2C (centres undefined),2.2,i,4,-3.2,-1,-1.8,0.69
COc1cccc(-c2cc(C(=O)N3CCCc4ccccc43)no2)c1,5.6,/,13,-5.5,-3,1.6,0.72
O=C(CN1CCCC1)Nc1ccc(F)c(Cl)c1,2.6,i,-20,0.9,10,0.9,0.71
Clc1ccc2nc(-c3ccccn3)c(Nc3ccc4c(c3)OCO4)n2c1,0.3,i,33,1.7,-23,0.1,0.6
Cc1ccc(Nc2nc(-c3cccs3)cs2)nc1,-1.4,i,12,1.3,6,3.5,0.65
COC(=O)c1ccc(Oc2nc(NC(C)C)nc(N(C)C)n2)cc1,4.4,/,-7,-0.4,8,2.9,0.71
Clc1ccc(CN2CCCCCCC2)cc1Cl,4.5,/,5,-0.5,-7,1.4,0.66
CCCNC(=O)c1cc(S(=O)(=O)N2CCCCC2)ccc1N1CCOCC1,-3.1,i,-3,-1.7,0,2.5,0.72
COc1ccc(OC)c(NC(=O)C2CC(/C=C/c3ccccc3)=NO2)c1 (centres undefined),0.4,i,3,-3.3,-8,0.1,0.71
Cc1n[nH]c(=O)c2c(NC(=O)CSc3nnc(C4CC4)n3C)oc(C)c12,4.8,i,-8,-1.0,-7,19,0.72
COc1ccc2cc(CCNC(=O)C3CC3)c(=O)[nH]c2c1,/,/,8,-11,-9,3.0,0.68
CCOC(=O)C1=C(c2ccccc2)c2ccccc2N(S(=O)(=O)C(F)(F)F)C1C(=O)OCC (centres undefined),4.0,i,/,/,1,2.9,0.7
Cc1ccc(NC(=O)CCC(=O)c2cccs2)nc1,0.6,i,-18,-4.7,-3,6.4,0.71
CC1CCC2(CC1)NC(=O)N(CC(=O)N1CCN(c3ccccc3)CC1)C2=O (centres undefined),-1.2,i,-3,-0.5,12,0.9,0.68
CCCCc1ccc(NS(=O)(=O)c2cccc(C(=O)N3CCCN(C)CC3)c2)cc1,1.5,i,-5,-4.8,7,-0.5,0.65
Cn1cc(S(=O)(=O)N2CCCC2)cc1C(=O)NCc1ccccc1Cl,2.6,i,-5,3.1,-3,-1.6,0.7
Cc1ccc[n+](CC(=O)Nc2ccc([N+](=O)[O-])cc2)c1,5.3,i,?,1.3,0,3.1,0.65
COc1ccc(C2(O)CCN(Cc3nnnn3Cc3ccc(C)cc3)CC2)cc1,-0.8,i,0,-5.8,11,-5.2,0.69
COc1ccccc1N(C)S(=O)(=O)c1ccc(Cl)c(C(=O)Nc2ccccc2N2CCOCC2)c1,3.2,i,/,/,6,2.4,0.7
Brc1ccc(CSc2nnc(-c3ccco3)o2)cc1,-0.2,i,/,1.5,-5,3.1,0.65
CCc1cccc(CC)c1NC(=O)CSc1nc2ccc(N3C(=O)C4C(C3=O)[C@H]3C=C[C@@H]4C3)cc2s1 (some centres undefined),2.6,i,-16,2.3,-1,1.4,0.65

# A section from the list above, for reference:
SMILES,UCH37 inh,FGF22 binding,ALR H2O2 inh,LANA-H2B inh,Beta2AR agonist,HNF4A DNA FP,E coli growth
COc1ccc(S(=O)(=O)Nc2cccc(C)n2)c2ccccc12,4.1,/,/,2.7,5,0.8,0.79
CC(OC(=O)CC1Sc2ccccc2NC1=O)C(=O)NC1CCCC1 (centres undefined),2.9,i,-2,3.9,-5,1.7,0.67
CC(=O)c1cccc(NS(=O)(=O)c2cc(OCC(N)=O)c(C)cc2Cl)c1,3.2,/,-4,1.4,-7,1.0,0.75
CCc1cccc(NC(=O)CSCc2nc3sc(C)c(C)c3c(=O)[nH]2)c1,-1.9,i,0,-0.8,12,13,0.7
CCOC(=O)c1c(C)[nH]c(C)c1S(=O)(=O)Nc1ccc(CN2CCCCC2)cc1,6.4,i,-12,0.1,2,8.6,0.68
O=c1[nH]cnc2c1sc(=S)n2-c1ccccc1,7.2,/,-4,3.6,0,6.6,0.67
Cc1ccc2[nH]c(=O)c(C3C(C#N)=C(N)Oc4c3ccc3cccnc43)cc2c1 (centres undefined),0.4,/,-5,-4.5,-5,4.0,0.64

# Source: PubChem

# Not all compounds are listed (hit frequency here may not be typical).
